T cruzi repl: blocks replication of Trypanosoma cruzi. T. cruzi beta-gal in NIH3T3, luminescence, 90 h. inhibition, % (concentration not given with the values). actives 1.4% (n = 300,000). AID 1885;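 active means mean inhibition across valid replicates above about 55%, limit read from the data; inconclusive means mean below that limit but half or more replicates reach it; inactive means mean below it, under half of replicates reach it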;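 further: signal also drops with host cell toxicity which is not excluded here; 0% = plate median of DMSO wells and 100% = zero luminescence signal; higher percent means less beta-gal luminescence so fewer parasites; stock transfer was 50 nL into about 50 µL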
UCH37 DUB inh: inhibitors of human deubiquitinating enzyme UCH37 | inhibition, % (no concentration beside the values) | Q9Y5K5 | purified proteasome/UCH37, Ub-AMC cleavage fluorescence | actives 0.33% (n = 330,000) | AID 588478;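 active means mean of two replicates above 20%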;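 further: 0% = compound-free wells with enzyme and 100% = wells lacking proteasome; stock transfer was 100 nL into about 20 µL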
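Reagent: Ub-AMC substrate; assay system: Proteasome-associated human UCH37 deubiquitinase; controls: no-proteasome and no-compound wells; read-out: % inhibition of Ub-AMC cleavage fluorescence; timing: 30 min preincubation with enzyme, 25 min cleavage at room temperature; signal: AMC fluorescence from Ub-AMC cleavage, excitation 355 nm, emission 460 nm; buffer or medium: Tris-HCl pH 7.4 plus ovalbumin, ATP-MgCl2, DTT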
A1 inh: inhibitors of the anti-apoptotic protein A1, read as caspase activation; AID 2462; caspase activation, % (test concentration not listed); actives 0.066% (n = 330,000); MEF A1-2A-BIM cells, Caspase-Glo 3/7 luminescence, 3 h; percent of clofoctol response, vehicle zero;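 active means over half of replicate activation scores above 10%, or exactly half above 10 with the replicate mean above 10; inconclusive means replicate mean below 10 yet half the replicates above 10; inactive means over half of replicates below 10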;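 further: wells of about 30 µL received 50 nL stock; many hits fall short of the cut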
Beta cell apopt: blocks beta cell apoptosis; AID 435005; INS-1E cytokine-induced death, ATP luminescence, 48 h; percent of positive-control rescue, neutral wells zero; protection from apoptosis, % (no concentration beside the values); actives 0.8% (n = 300,000);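 active means all replicates at 75% or more, or half of them and the mean; inconclusive means half reach 75% but not the mean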;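 further: 0% = cytokine-treated negative control wells and 100% = positive control rescue; higher means more ATP so stronger rescue from cytokine killing; wells of about 40 µL received 100 nL stock; the first replicate is given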
Calb FLC: C. albicans growth modulation with fluconazole; AID 1979; C. albicans CaCi-2 (fluconazole-resistant clinical isolate) + fluconazole, Alamar Blue growth, 48 h; growth inhibition, % (concentration not given with the values); actives 0.57% (n = 300,000);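 active means most replicates above 75%; inconclusive means exactly half above 75%; inactive means most below 75%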;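 further: all wells also contain fluconazole at 8 µg/ml as a sub-toxic cotreatment; 0% = median of DMSO wells and 100% = median of geldanamycin control wells; wells of about 8 µL received 7.5 nL stock; the first replicate is given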
B2AR ag: activates human beta-2 adrenergic receptor causing internalization. response, % (concentration not given with the values). Am2.2-beta2AR cells, FAP receptor internalization, flow cytometry; reference of the scale not given here. AID 504454. actives 0.43% (n = 340,000);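 active means response above a set limit, near 3 SD of response in nonfluorescent compounds, cut at about 42% in these data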;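 further: stock transfer was 100 nL into about 11 µL; a reference agonist was the positive control; negative values mostly stem from fluorescent compounds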
LANA-H2A inh: blocks KSHV LANA binding to histone H2A/H2B; Q9QR71; inhibition, % (test concentration not listed); actives 0.6% (n = 320,000); cell-free LANA-H2A/H2B peptide, fluorescence polarization; in the data active means inhibition mostly above about 10%, no sharp cut-off; inactive means mostly below about 6.7%;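 further: stock transfer was 7.5 nL into about 10 µL; 0% = median of vehicle wells and 100% = median of positive control wells; one replicate is shown; the record names a cut of 25% in any replicate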
Target sequence (Q9QR71 whole entry, looked up): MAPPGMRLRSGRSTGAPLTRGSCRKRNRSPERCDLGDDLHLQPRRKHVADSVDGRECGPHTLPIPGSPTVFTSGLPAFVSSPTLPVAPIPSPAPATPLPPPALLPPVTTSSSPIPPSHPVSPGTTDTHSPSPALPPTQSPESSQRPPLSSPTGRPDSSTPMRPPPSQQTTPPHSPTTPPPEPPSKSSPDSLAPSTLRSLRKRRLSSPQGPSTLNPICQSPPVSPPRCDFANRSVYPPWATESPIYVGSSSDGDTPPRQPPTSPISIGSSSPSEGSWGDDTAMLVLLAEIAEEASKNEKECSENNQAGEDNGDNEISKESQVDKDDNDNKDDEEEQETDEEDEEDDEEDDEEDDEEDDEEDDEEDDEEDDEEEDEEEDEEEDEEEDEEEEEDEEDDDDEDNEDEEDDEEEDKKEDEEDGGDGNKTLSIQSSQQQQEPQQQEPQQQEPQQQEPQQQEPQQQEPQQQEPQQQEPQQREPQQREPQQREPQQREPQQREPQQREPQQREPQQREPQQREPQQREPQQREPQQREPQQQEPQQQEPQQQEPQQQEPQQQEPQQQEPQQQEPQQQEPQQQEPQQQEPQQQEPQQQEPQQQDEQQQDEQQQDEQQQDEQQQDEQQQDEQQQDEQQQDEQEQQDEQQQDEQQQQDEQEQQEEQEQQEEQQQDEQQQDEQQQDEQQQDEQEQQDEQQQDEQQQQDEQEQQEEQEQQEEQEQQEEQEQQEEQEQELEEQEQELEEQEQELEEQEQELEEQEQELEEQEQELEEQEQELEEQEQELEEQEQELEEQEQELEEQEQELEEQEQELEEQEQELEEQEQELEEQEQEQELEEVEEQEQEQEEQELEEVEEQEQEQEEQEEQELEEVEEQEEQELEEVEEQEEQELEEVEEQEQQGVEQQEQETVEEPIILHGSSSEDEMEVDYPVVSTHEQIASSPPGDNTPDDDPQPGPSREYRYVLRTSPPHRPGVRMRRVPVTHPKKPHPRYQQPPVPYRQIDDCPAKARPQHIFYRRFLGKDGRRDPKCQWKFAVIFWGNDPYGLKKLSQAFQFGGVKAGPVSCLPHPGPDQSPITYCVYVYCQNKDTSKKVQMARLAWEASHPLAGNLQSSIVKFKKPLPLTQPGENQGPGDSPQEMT
RanGTP-Imp inh: inhibitors of RanGTP-importin-beta interaction, primary screen, biochemical, FRET, CFP-Ran, YFP-importin-beta, homogeneous | inhibition, % (concentration not given with the values) | cell-free CFP-Ran/YFP-importin-beta FRET ratio | actives 1.1% (n = 300,000) | AID 2216;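 active means most replicates above 15%; inconclusive means exactly half above 15%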;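 further: 0% = DMSO wells and 100% = Ran loaded with GDP instead of GTP; wells of about 40 µL received 100 nL stock; the first replicate is given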
An asterisk follows results filed as active; i = inactive; ? = inconclusive; / = no result given.

SMILES	T cruzi repl	UCH37 DUB inh	A1 inh	Beta cell apopt	Calb FLC	B2AR ag	LANA-H2A inh	RanGTP-Imp inh
Cc1cccc(OC(=O)C2C(c3ccccc3)C(C(=O)O)C2c2ccccc2)c1 (stereo not given)	-1	1.1	0.4	/	45	16	2.2	0.2
Cc1ccc(NNC(=O)c2c(C)noc2C)cc1Cl	39	5.4	-1.7	3	-3	9	-1.1	-3.4
COc1ccccc1C(=O)NC(C)c1cccc2ccccc12 (stereo not given)	12	6.2	0.4	7	0	-5	3.4	-0.2
Cc1ccccc1OCCC(=O)OCC(=O)NC1CC1	-3	3.6	-0.9	-4	-1	2	1.9	5.3
Cc1cc([N+](=O)[O-])ccc1NC(=O)c1csc(C)c1C	8	5.9	0.0	-1	-24	7	-2.2	-3.9
COc1ccc2[nH]c3c(=O)n(/N=C/c4ccc(OC)c(CN5CCCC5)c4)c(C)nc3c2c1	65*	/	-0.7	7	8	19	1.8	2.0
Cc1cc(C)cc(NC(=O)COC(=O)CC2CCCC2)c1	/	0.4	0.6	-13	/	12	i	/
Cc1occc1C(=O)N(Cc1nc(-c2ccccc2)no1)C(C)C	-1	4.2	0.4	1	-4	4	16*	-3.2
N#CCN(CC#N)C(=O)C1c2ccccc2Oc2ccccc21	2	/	0.1	-3	6	-5	16	-0.1
CCOc1cc(NC(=O)c2cccs2)c(OCC)cc1NC(=O)c1ccccn1	-3	-71	0.1	10	?	-14	-0.1	6.8
COc1ccc(CCNC(=O)CN(C)S(=O)(=O)c2ccc(OC)cc2)cc1	-10	1.0	3.0	4	-3	-4	-4.4	-3.0
C#CCOCCOCCOCCNc1nc(N2CCN(C(=O)[C@H](CCCCN)n3cc(C(N)CO)nn3)CC2)nc(N2CCN(C(=O)[C@H](CCC(=O)O)n3cc(C(N)Cc4ccc(O)cc4)nn3)CC2)n1 (stereo not given in full)	-34	-0.2	/	/	-5	/	/	-4.7
COc1ccc(N/C(=C(/C(Cl)=C(Cl)Cl)[N+](=O)[O-])n2nnc3ccccc32)cc1	-10	/	-0.5	-1	13	/	2.7	-40
Cc1nc(NC(=O)c2ccccc2)nc2cc3c(cc12)OCO3	-10	7.4	-1.2	3	0	-8	2.0	-0.8
CC(=O)c1ccc(N2CCN(CC(=O)NCc3ccccc3)CC2)cc1	-5	4.2	1.3	-3	4	1	-5.6	-0.4
CC1CCCCN1Cc1c(O)ccc2c(=O)c(-c3nc4ccccc4s3)c(N)oc12 (stereo not given)	29	-23	-0.9	-13	-34	7	-2.1	/
Cc1cc2c(c(=O)n1Cc1cccnc1)C(c1cccs1)C(C#N)=C(N)O2 (stereo not given)	1	7.7	1.1	-6	-11	12	4.6	4.6
COc1ccc(/C=C/C(=O)NCC(=O)N/N=C(/CCC(=O)O)c2ccccc2)cc1	-8	/	-0.6	3	-7	12	1.3	0.7
O=[N+]([O-])c1ccc(-n2cc(-c3ccccc3)nn2)cc1	-2	2.6	-1.3	2	-18	-2	0.0	2.6
COc1ccc(C(=O)Nc2cccc(C(=O)NCc3ccco3)c2)cc1	5	1.6	-1.2	-4	40	5	3.7	-3.0
COc1ccc(S(=O)(=O)Nc2nc3c(s2)C(=O)CC(C)(C)C3)cc1	1	6.8	0.3	-3	19	1	2.0	-0.1
CN(C)/C=C/c1c([N+](=O)[O-])c2ccc(O)cc2n1-c1ccccc1	-27	12	1.5	-17	2	11	-3.2	0.9
COc1cc(CN2CCCC(N3CCN(c4ccccc4C)CC3)C2)ccc1O (stereo not given)	41	1.1	-0.4	1	-5	17	-3.7	0.4
Cc1csc(C(C#N)C(=O)c2ccc(S(=O)(=O)N3CCCC3)cc2)n1 (stereo not given)	11	12	-0.4	-3	11	5	0.5	-13
CCOC(=O)c1c(NC(=O)COC(=O)c2cnccn2)sc(C(=O)NC)c1C	-1	/	1.4	-6	/	-5	-1.5	-0.1
Cc1ccc(-c2cc(=O)[nH][nH]2)c(C)c1	-20	2.5	-0.3	3	11	-1	-3.4	-14
CC(C)c1ccc(S(=O)(=O)N2CCN(C(=O)Cc3ccsc3)CC2)cc1	6	0.1	-0.3	2	0	-1	/	7.1
CCN(CC(=O)NCc1cccs1)C(=O)c1ccc(S(=O)(=O)Nc2ccccc2F)cc1	4	/	0.6	-4	0	0	-3.6	1.9
Cc1ccc(S(=O)(=O)N2CCC(C(=O)NCc3ccccc3CN3CCCC3)CC2)cc1	/	-2.5	-0.1	1	/	-2	-0.1	/
O=C1c2ccccc2C(Nc2ccc3c(c2)OCCO3)N1c1ccc(Cl)cn1 (stereo not given)	39	-0.3	-6.0	2	5	-7	2.7	-2.4
CCCC(=O)C1=C(O)C(C(=O)OC)C(C)(C)CC1=Nc1cccc([N+](=O)[O-])c1 (stereo not given)	3	0.9	-0.8	/	6	-2	3.8	0.9
O=C(CCC(=O)N1CCN(c2ccc(O)cc2)CC1)c1cccs1	30	3.2	-0.5	7	-18	-9	1.3	-0.6
COCCNC(=O)c1cn(C)c2ccc(S(=O)(=O)N3CCCCC3)cc2c1=O	-3	3.6	-0.6	0	3	2	5.8	0.5
COc1ccccc1OCC(=O)Nc1cc(NC(=O)COc2ccccc2OC)cc(C(=O)O)c1	-9	3.0	2.0	/	11	-7	0.4	0.2
COC(=O)c1ccc(COc2ccccc2OC)o1	-10	-5.8	0.1	6	10	11	0.8	-2.4
CC(C)c1ccc(NC(=O)c2cc3c(=O)n(C)c4ccccc4c3n2C)cc1	60*	-6.8	-0.2	13	2	24	4.2	0.9
CC(C)Oc1ccc(S(=O)(=O)N2CCOCC2)cc1NC(=O)C1CCC1	-1	0.0	-0.6	1	-8	2	/	0.9
COc1ccc(/C=C/C(=O)N2CCC(C(N)=O)CC2)cc1S(=O)(=O)N1CCOCC1	-12	3.1	-0.3	-3	-1	-2	-1.0	-0.8
CC1CN(C(=O)c2cccc(S(=O)(=O)NCc3ccccc3)c2)CC(C)O1 (stereo not given)	/	3.2	0.0	0	/	6	-4.3	/
CN(C)CCCN1C(=O)c2cccc3c(Br)ccc(c23)C1=O	42	-12	0.6	13	41	i	4.0	-11
NCCNc1cc(N2CCCC2)ccc1[N+](=O)[O-]	9	9.6	0.6	-1	8	-11	-0.7	0.5
Cc1ccc(NC(=O)Cc2nnc(SCC(=O)NC3CCCC3)n2C)cc1C	-4	/	-0.3	-1	1	4	-4.6	6.0
O=C(Nc1nccs1)c1ccc(Br)cc1	-14	0.8	-2.4	-4	4	-3	0.9	2.4
O=C(Nc1cc([N+](=O)[O-])ccc1F)C1CC1	-16	-1.9	0.6	-9	-18	2	29*	0.8
O=C(Nc1ccc(O)c(-c2nc3ccccc3o2)c1)C1(c2ccc(Cl)cc2)CCCC1	-12	0.9	-1.5	16	-4	4	-1.2	4.2
Cc1cc(C)cc(CSCC(=O)N/N=C/c2ccc(OCC(=O)NCc3ccco3)cc2)c1	/	/	-0.2	-3	10	13	0.2	4.1
C=CCN1CCN(C(=O)CCCc2ccccc2)CC1	7	4.0	-0.6	-8	-9	-3	-2.4	-4.4
C[C@@H](C(=O)CC(=O)OC(C)(C)C)[C@@H](O)c1c(F)cccc1Cl	-12	4.6	0.3	0	0	0	-3.4	-2.2
COc1ccccc1NS(=O)(=O)c1cccc(C(=O)NCC(c2ccccc2OC)N2CCCC2)c1 (stereo not given)	5	-2.0	-0.8	0	-6	10	-2.7	2.1
COc1ccc(OCC(=O)NNC(=S)NC(=O)C2CC2)cc1	-21	4.0	1.6	-1	14	-5	6.1	0.7
Cc1cccc(NC(=O)c2nc(S(=O)(=O)Cc3ccccc3)ncc2Cl)c1	-14	/	0.0	?	8	9	-2.3	3.2
CCOc1ccc(/C=C2\SC(=S)N(Nc3ccccc3)C2=O)cc1OC	-22	0.5	0.1	-6	-3	22	-2.6	0.2
O=C(NC1CCN(Cc2ccccc2)CC1)c1ccc(N2CC3CC(C2)c2cccc(=O)n2C3)c([N+](=O)[O-])c1 (stereo not given)	2	-3.6	1.7	2	-26	2	4.1	6.5
CCOc1cc(/C=N/NC(=O)c2cccnc2)ccc1OCC(=O)N(C)C	-16	/	-0.2	3	-9	4	3.0	1.2
Cc1cccc(NS(=O)(=O)c2ccc(-c3ccc(=O)[nH]n3)o2)c1	6	2.2	-0.2	-2	31	-6	-3.6	0.6
COc1ccc(Cl)cc1NC(=S)NCCC(c1ccccc1)c1ccccc1	56*	4.0	1.3	-2	?	-3	-7.3	1.3
O=C1c2ccccc2C(=O)N1OCc1c(F)cccc1Cl	-12	3.2	0.1	-11	1	6	-1.9	-0.2
O=C(CC1CCCCC1)c1c(O)c2ccccc2oc1=O	-22	-1.4	-1.1	4	38	4	-5.3	-2.2
NNC(=O)C1CC1c1ccc(Cl)cc1 (stereo not given)	9	0.0	1.5	-6	-15	-4	-2.8	1.2
Cc1cc(C)c(OCC(=O)NCC(C)(C)N2CCOCC2)c(C)c1	6	5.3	-0.4	2	-12	1	-2.3	-2.1
Later entries.
SMILES	T cruzi repl	UCH37 DUB inh	A1 inh	Beta cell apopt	Calb FLC	B2AR ag	LANA-H2A inh	RanGTP-Imp inh
COc1ccc([N+](=O)[O-])cc1NC(=O)CCN1CCN(c2ccccc2)CC1	4	1.6	-0.4	-4	12	-1	-3.1	-0.9
O=C(c1ccccc1NS(=O)(=O)c1ccccc1)N1CCCCCC1	-12	1.1	0.4	-6	13	9	2.9	-1.4
CN1CCN(Cc2cc(=O)oc3cc4c(cc23)CCC4)CC1	30	-1.5	1.6	0	-6	1	0.3	-1.1
CCCC1=NN(C(=O)Cc2ccc(OC)cc2)C(O)(C(F)(F)F)C1 (stereo not given)	-2	5.2	-0.5	3	1	-2	-1.2	1.8
O=C(Nc1sc2c(c1C(=O)O)CCCC2)c1ccccc1Cl	7	6.4	0.3	0	7	7	0.7	-2.4
COc1ccccc1/C=C/C=N/n1c(-c2ccc(Cl)cc2Cl)n[nH]c1=S	-15	/	0.2	2	1	-10	-0.4	-2.4
COc1ccc(C(=O)N2CCCC(c3nc(-c4cccs4)no3)C2)cc1OC (stereo not given)	6	2.7	-0.1	-3	8	-5	6.0	-1.8
CCC(=O)Nc1ccc(NC(=O)c2ccccc2)nc1	2	-1.4	-4.5	-3	-14	1	0.3	-8.7
CCn1cc(C(=O)O)c(=O)c2cc(F)c(N3CCN(C(=S)NC(=O)c4ccccc4Cl)CC3)cc21	5	-2.3	0.1	-2	-3	8	6.7	6.2
CCN(CCO)c1ncnc2c1sc1nc(C(C)C)c3c(c12)CC(C)(C)OC3	-6	-53	-0.4	19	-8	20	4.4	-1.5
O=C(Nc1cccc(O)c1)C1CC(c2ccc(Cl)cc2)=NO1 (stereo not given)	-8	/	-0.3	-3	6	-4	0.5	-1.1
CN(C(=O)NC1CC(=O)N(c2ccc3c(c2)OCCO3)C1)c1ccccc1 (stereo not given)	-7	2.1	0.0	/	-3	-6	-0.9	?

Screening results (PubChem BioAssay)
